Screens (PubChem)
PrP UTR inh = suppresses PrP 5' UTR mRNA reporter expression; 0.35% of 340,000 active; inhibition, % (test concentration not listed); cell-based PrP 5' UTR mRNA reporter, plate reader;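 active = every replicate at 50% or more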;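 note: 0 = median of the neutral control wells; tested in H4 reporter cells; numbers are from one replicate; inactives centre near -14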
Mtb hypoxia inh = inhibitors of hypoxia-regulated fluorescent reporter in Mycobacterium tuberculosis; M. tuberculosis hypoxia-regulated fluorescent reporter, fluorescence; fluorescence inhibition, % (test concentration not listed); 0.1% of 300,000 active;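 active = 35 to 45% if threefold the growth effect, above 45% if 1.5-fold the growth effect; inactive = the rest, general growth blockers included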;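 note: wells of about 50 µL received 100 nL stock; 0% = vehicle wells and 100% = reference inhibitor wells; whole bacteria with a GFP reporter of the hypoxia response; strong numbers were not always called active; many hits fall short of the cut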
ugtP null kill = compounds lethal to S. aureus RN4220 ugtP deletion mutant. growth inhibition, % (no concentration beside the values). OD600 growth, 16 h; some inactives read as strong as hits. 0.54% of 330,000 active;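 active = z-score under -3 and OD600 up to 0.15 on both plates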;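 note: plate controls were untreated wells for no effect and antibiotic for full effect; wells of about 80 µL received 100 nL stock; the first replicate is given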
RN4220 kill = kills Staphylococcus aureus RN4220 | S. aureus RN4220 growth, OD600, 16 h | AID 1259311 | inhibition, % (no concentration beside the values) | 0.33% of 330,000 active;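 active = z-score of -3 or lower and OD600 up to 0.18 on both plates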;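 note: plate controls were untreated cells for no effect and reference antibiotic for full effect; stock transfer was 100 nL into about 80 µL; one replicate is shown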
Bead autofluor = counter-screen for toxin protease inhibitors: compound fluorescence; compound autofluorescence counterscreen, microsphere flow cytometry; hits give high values; fluorescence intensity (no concentration beside the values); 3.1% of 360,000 active; AID 624483;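 active = at least 3 SD above the mean of all compounds, about 16000 in these data; inconclusive = too few beads counted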;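 note: 100 nL of 1 mM stock went into each well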
BJeLR viability = kills HRASV12-expressing BJeLR cells; 0.17% of 300,000 active; inhibition, % (test concentration not listed); BJeLR (HRASV12) viability, CellTiter-Glo ATP luminescence, 48 h; reference of the scale not given here;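 active = replicate mean above 50%; inconclusive = above 50% but judged a plate artefact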;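 note: 50 nL library stock added to about 25 µL; numbers are from one replicate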
Mtb hypoxia inh growth = also measured in Mtb hypoxia inh; calls as there; growth inhibition, %; measured here: M. tuberculosis growth (absorbance);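 0% = vehicle and 100% = reference antibiotic; read after six days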
Starred values were filed as active, the others as inactive; ? = inconclusive; . = no result given.

Compound	PrP UTR inh	Mtb hypoxia inh	Mtb hypoxia inh growth	ugtP null kill	RN4220 kill	Bead autofluor	BJeLR viability
Cc1ccc([N+](=O)[O-])cc1-c1ccc(C=NNC(=O)c2cc3c(ccc4ccccc43)o2)o1	.	-3	-6	7	25	.	.
COc1ccc(/C=C2\N=C(SC)N(c3ccccc3OC)C2=O)cc1	0	13	8	3	3.6	5369	19
Cc1nc2ccccc2nc1N1CCCC1	-25	15	9	5	5.2	3334	-7
Brc1ccc(-c2csc(N3CCc4ccccc4C3)n2)cc1	-14	.	.	27	1.6	3200	4
Cc1ccc(C(=O)NCCNC(=O)c2ccco2)cn1	-7	-3	-8	0	1.2	4440	-5
COc1cc(CN(CCN(C)C)Cc2ccccc2)ccc1OCc1ccccc1	2	-8	8	5	-0.1	3833	-14
COC(=O)[C@@]12CCCCN1[C@H](c1ccc(-c3ccccc3)cc1)[C@@H]1C(=O)N(C)C(=O)[C@@H]12	-2	.	.	.	.	2885	-8
COC(=O)c1ccc(S(=O)(=O)NNC(=O)COc2ccc(C)cc2)cc1	2	15	10	2	7.3	2209	8
CCn1c(-c2ccc(C)cc2)nn(CC(=O)NCCc2ccccc2)c1=S	-8	10	-1	13	-2.3	2382	10
COc1ccc(CN2CCN(C(=O)c3ccc(CNS(=O)(=O)c4ccc(C)cc4)cc3)CC2)c(OC)c1OC	-2	-5	9	3	3.5	5059	-13

Following part
Compound	PrP UTR inh	Mtb hypoxia inh	Mtb hypoxia inh growth	ugtP null kill	RN4220 kill	Bead autofluor	BJeLR viability
COc1ccccc1N1CCN(C(=O)c2cc(N3C(=O)C4C5CCC(C5)C4C3=O)ccc2Cl)CC1 (centres undefined)	-12	4	7	5	3.1	2224	14
O=C(NCC1CCCN1S(=O)(=O)c1ccccc1)C(=O)NC1CC1 (centres undefined)	-19	-1	-3	9	4.5	?	-1
COc1ccccc1CNS(=O)(=O)c1ccc(-c2cnc(C3CC3)o2)cc1	-27	-6	-20	-3	4.9	5576	27
COc1ccc(-n2c(-c3ccc(F)cc3)cnc2SCC(=O)NCc2ccco2)cc1	-34	3	8	-7	3.7	7656	9
COc1cccc(C2CC(c3cccs3)=NN2C(=O)CSc2nc3c(cnn3-c3ccc(F)cc3)c(=O)[nH]2)c1OC (centres undefined)	-16	-9	4	-20	19	5500	-9
COc1ccc(/C=C2\SC(=S)N(CC(=O)Nc3nnc(C)s3)C2=O)cc1	-22	.	.	.	.	4639	-4
Cc1cc(C(=O)NC2CC(C)(C)Cc3c2cnn3-c2ccccc2)n[nH]1 (centres undefined)	-25	-4	-3	10	1.7	5564	5
COc1cc(/C(O)=C(\C#N)c2nc3ccccc3[nH]2)cc(OC)c1OC	15	-9	1	-18	4.7	4483	11
CC(=O)c1ccc(OCCN2CCOCC2)cc1	-25	-12	-4	-1	-0.6	8561	-5
COC(=O)c1c(NC(=S)Nc2ccc(C(=O)N3CCOCC3)cc2)sc2c1CCC2	-19	0	6	2	2.0	3194	-8

The listing continues.
Compound	PrP UTR inh	Mtb hypoxia inh	Mtb hypoxia inh growth	ugtP null kill	RN4220 kill	Bead autofluor	BJeLR viability
Cn1c(=O)oc2cc(S(=O)(=O)NCCc3ccccc3)ccc21	7	9	3	12	2.2	2419	-2
CSCc1cc(N2CCCC2)nc(-c2ccccc2)n1	-2	3	1	-4	4.0	5386	2
O=C(Nc1ccc(NC(=O)C2CC2)nc1)c1cccnc1	-20	17	11	1	5.0	4268	30
CC(=O)Nc1ccc(OCC(O)CNC2CCCC2)cc1 (centres undefined)	0	0	0	1	1.1	23804*	-14
COc1cccc(CC2(CO)CCCN(Cc3ccc(OC(F)F)cc3)C2)c1 (centres undefined)	-28	.	.	.	.	7417	-8
O=C(Nn1cnc2ccccc2c1=O)c1ccccc1	1	-11	-11	5	2.2	2471	-6
COc1ccc(-c2nnc(NC(=O)c3ccc(S(=O)(=O)N4CCCc5ccccc54)cc3)o2)cc1	26	15	12	100*	98*	4662	-6
CCn1c(SCC(=O)Nc2nnc(C)s2)nnc1C(C)NC(=O)c1ccccc1 (centres undefined)	-28	0	9	10	-1.9	3556	2
O=C(Nc1ccc(-c2ccccc2)cc1)c1ccccc1	-30	-1	15	5	4.0	3391	6
COc1ccc(NC2CCCN(C(=O)CSc3ccccc3)C2)cc1 (centres undefined)	-20	1	1	9	4.2	6366	-1

(cont.)
Compound	PrP UTR inh	Mtb hypoxia inh	Mtb hypoxia inh growth	ugtP null kill	RN4220 kill	Bead autofluor	BJeLR viability
COC(=O)CSc1nc2c(cnn2-c2ccc(F)cc2)c(=O)[nH]1	-12	-3	5	-4	3.0	4151	2
CCCn1nnnc1NCc1cccc(OC)c1OCC	16	-3	13	-2	-3.7	3602	1
Cc1cccc2sc(N(CCCN(C)C)C(=O)c3ccc(S(=O)(=O)N4CCc5ccccc5C4)cc3)nc12	-3	-4	-2	-10	-6.5	5084	0
NC(=O)OCC(O)COc1ccc(Cl)cc1 (centres undefined)	-3	3	-1	-2	3.7	5569	.
CCn1ccnc1CN1CCCC(CO)(Cc2cccc(OC)c2)C1 (centres undefined)	-21	-8	6	2	3.7	6603	11
C=CCN1C(=O)C(Cc2ccc(OC)cc2)SC1=NN=Cc1ccco1 (centres undefined)	.	-7	9	10	2.5	.	.
O=C(O)/C=C/C(=O)N1N=C(c2ccco2)CC1c1ccco1 (centres undefined)	-31	1	3	7	1.1	3724	-6
O=C(Nc1cccc(-c2cn3ccccc3n2)c1)c1cnccn1	-43	.	.	7	0.0	3666	-9
Cc1ccc(C)c(OCCC(=O)OCC(=O)Nc2cccnc2Cl)c1	-34	12	1	3	-0.5	5506	3
COc1ccc(-c2n[nH]c(=S)n2-c2ccccc2C)cc1OC	-20	4	12	0	-0.3	3631	-7

(list continues)
Compound	PrP UTR inh	Mtb hypoxia inh	Mtb hypoxia inh growth	ugtP null kill	RN4220 kill	Bead autofluor	BJeLR viability
COc1ccc(N2CCN(C(=O)c3ccc(CNS(=O)(=O)c4ccc(C)cc4)cc3)CC2)cc1	-37	4	-1	-1	0.4	6201	6
Cc1cc(/C=C2\C(=O)NC(=O)N(c3ccc(Cl)cc3)C2=O)c(C)n1C	-6	10	7	0	0.7	2650	2
COc1ccc(NC(=O)c2ccc(OCC3CCCO3)cc2)cc1OC (centres undefined)	-34	10	8	6	5.3	3403	.
C[C@@H]1CCC(=O)N(CC[C@H](Oc2ccccc2)c2ccccc2)CC1	-10	.	.	.	.	3767	2
O=C(CCC(=O)OCC(=O)c1cccc([N+](=O)[O-])c1)Nc1cccc(Cl)c1Cl	-12	10	1	4	3.0	3741	-1
COC(=O)CSc1nc(NCC(C)C)nc(N2CCOCC2)n1	-4	7	1	12	4.0	7298	-6
Cc1ccc(-c2csc(N(CCCN3CCOCC3)C(=O)c3ccco3)n2)cc1	-28	13	6	9	-2.0	12920	-1
CC(=O)N1CCN(CC(C)(C)NS(=O)(=O)c2ccc(C)cc2)CC1	5	-6	0	-3	2.3	?	-7
Cc1nn(-c2ccccc2)c(C)c1NC(=O)COC(=O)Cc1ccccc1	-13	5	7	7	1.3	5574	-8
CC(=O)Nc1cccc(-c2cn3ccccc3n2)c1	-27	6	3	9	3.0	2230	2

Full records from above:
Entry for `CC(=O)N1CCN(CC(C)(C)NS(=O)(=O)c2ccc(C)cc2)CC1` : PrP UTR inh = 5; Mtb hypoxia inh = -6; Mtb hypoxia inh growth = 0; ugtP null kill = -3; RN4220 kill = 2.3; Bead autofluor = ?; BJeLR viability = -7
Entry for `C[C@@H]1CCC(=O)N(CC[C@H](Oc2ccccc2)c2ccccc2)CC1` : PrP UTR inh = -10; Mtb hypoxia inh = .; Mtb hypoxia inh growth = .; ugtP null kill = .; RN4220 kill = .; Bead autofluor = 3767; BJeLR viability = 2

The list goes on:
Compound	PrP UTR inh	Mtb hypoxia inh	Mtb hypoxia inh growth	ugtP null kill	RN4220 kill	Bead autofluor	BJeLR viability
Cc1nnc(NN=Cc2ccccc2C(F)(F)F)n1N	.	7	11	1	4.3	.	.
Cc1cc(C)n(C(=O)CCCC(=O)n2nc(C)cc2C)n1	-8	3	2	8	6.3	3361	-1
Cc1c(C=NN2C(=O)C3C4C=CC(C4)C3C2=O)c2ccccc2n1C (centres undefined)	.	-6	-2	-2	-5.3	.	.
CCOc1ccc(NCc2cccn2-c2nnc(N3CCC(C(=O)NCCCN4CCCCC4C)CC3)s2)cc1 (centres undefined)	-32	8	6	5	0.9	4880	5
CCOc1ccccc1N(CC(=O)NC1CCCCC1)C(=O)CCC(=O)Nc1nccs1	-22	9	11	-3	0.6	3617	0
COC(=O)c1ccc(NC(=O)CN2CCOCC2)cc1	-21	11	3	8	6.4	7948	-9
O=S(=O)(c1ccc(Cl)cc1)N1CCN(c2ncccn2)CC1	-8	14	3	4	1.0	3331	13
O=C(CSc1nnc(-c2ccncc2)o1)Nc1ccccc1C(F)(F)F	-14	0	8	-2	-0.6	5894	8
COc1cc2ccccc2cc1C(=O)NC(=S)Nc1cc(C(=O)O)ccc1C	-41	-3	-2	12	28	2591	3
O=C(O)CCCC(=O)Nc1ccccc1C(=O)N1CCCC1	-10	.	.	-3	-0.3	4577	6

Other structures follow:
Compound	PrP UTR inh	Mtb hypoxia inh	Mtb hypoxia inh growth	ugtP null kill	RN4220 kill	Bead autofluor	BJeLR viability
Cn1nnnc1SCCNCc1ccncc1	-30	1	5	4	6.0	10753	-2
Cc1[nH]nc(-c2ccc(OCc3cnn(-c4ccccc4)c3)cc2O)c1Oc1ccc(Cl)cc1	-11	.	.	0	-13	2255	-4
Cc1cc(Cl)c(S(=O)(=O)N2CC(C)OC(C)C2)cc1OCC(N)=O (centres undefined)	-15	.	.	8	0.4	.	6
COCCN1C(=O)c2ccccc2C(C(=O)NCCCN2CCCC2=O)C1c1c[nH]c2ccccc12 (centres undefined)	-15	.	.	-1	2.8	2380	.
CCCn1c(Nc2nc3ccccc3n2C)nc2ccccc21	-10	.	.	3	6.1	10831	6
COC(=O)CCCC1=CC2=CC(=O)C(C)(OC(=O)c3cccs3)C(=O)C2=CN1C1CCCCC1 (centres undefined)	-16	11	10	-11	7.3	2541	0
Cc1cc(O)ccc1N1C(=O)c2cccc3cc([N+](=O)[O-])cc(c23)C1=O	-6	4	-6	-5	1.0	4152	-9
CCN(CC(=O)N1CCCC1)S(=O)(=O)c1cc(C)ccc1OC	-18	8	-2	5	9.5	3552	-2
COc1ccc(CCn2c(C3CCCCC3)nc3c(c(=O)c4ccccc4n3C)c2=O)cc1	.	-1	0	-4	-3.1	.	5
Clc1ccc(-n2nnc(-c3ncc[nH]3)n2)cc1Cl	-35	1	-1	4	6.3	3555	-11

(continued)
Compound	PrP UTR inh	Mtb hypoxia inh	Mtb hypoxia inh growth	ugtP null kill	RN4220 kill	Bead autofluor	BJeLR viability
CC(C)(C)NC(=O)NC(=O)CSc1nncs1	-60	6	7	3	3.9	3370	4
COc1ccc(C(=O)NCc2ccco2)cc1S(=O)(=O)N1CCOCC1	-13	6	7	4	3.3	3549	-7
O=C(CSCc1ccccc1Br)NNC(=S)NCc1ccco1	-1	12	8	-3	7.0	5897	1
Cc1ccsc1/C=N/NC(=O)CSCc1ccc(Cl)cc1	-13	.	.	.	.	3145	-5
O=C(CCNc1n[nH]c(=O)[nH]c1=O)NN=Cc1ccc(Cl)cc1	.	8	0	0	0.4	.	.
COc1ccc(-c2csc(-n3ncc(-c4cccs4)c3N)n2)cc1	-25	-3	4	-7	-0.6	4258	0
CC(=O)c1sc(NC(=O)C2CCCN2S(=O)(=O)c2ccccc2F)nc1C (centres undefined)	-10	5	-6	6	-1.0	3130	.
O=C(CN1CCOCC1)Nc1ccc(NC(=O)c2ccccc2F)cc1	-10	5	10	2	-0.5	3602	-1
O=C(OCc1nc2ccccc2[n+]([O-])c1C(=O)c1ccccc1)c1ccco1	-10	21	12	6	5.4	4267	-3
CN(C)C(=O)CCc1ccc2c3c([nH]c2c1)[C@]1(CCc2ccccc2)[C@@H](C(=O)N2CCCCC2)C[C@H](CC(=O)NC(C)(C)C)C(=O)N1CC3	12	-1	-3	7	0.3	3894	.

The list goes on.
Compound	PrP UTR inh	Mtb hypoxia inh	Mtb hypoxia inh growth	ugtP null kill	RN4220 kill	Bead autofluor	BJeLR viability
C(=N\Nc1nc(-c2ccccc2)cs1)/c1cccnc1	-78	.	.	.	.	23863*	-11
COc1cc(C2CC=C(C(=O)O)C(c3ccc(F)cc3)N2S(=O)(=O)c2ccc(C)cc2)cc(OC)c1OC (centres undefined)	.	17	4	4	0.6	.	.
CN(Cc1ccc(F)cc1)C(=O)c1ccc2c(c1)NC(=O)CS2	-30	8	13	5	3.5	4424	2
O=C(CSc1ccccn1)N1CCOCC1	-8	3	8	5	2.2	2485	-10
